MLL AF4-AF9 inh = inhibitors of AF4 peptide binding to AF9, primary screen, biochemical, AlphaScreen, biotin-AF4 peptide, FLAG-AF9, single point | Protein AF-9 (Homo sapiens), P42568 | inhibition, % at 10 µM | AID 651704, 2012 | hit rate 0.47% among 350,000;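 active = every replicate reaching a set inhibition limit, whatever the replicate mean, cut at about 25% in these data; inconclusive = mean inhibition reaches that limit but some replicates miss it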;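 note: 0% = plate neutral control median and 100% = total signal loss; the record names both 10 and 1 µM as test concentration; the first replicate is given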
Target sequence (P42568 whole entry, looked up): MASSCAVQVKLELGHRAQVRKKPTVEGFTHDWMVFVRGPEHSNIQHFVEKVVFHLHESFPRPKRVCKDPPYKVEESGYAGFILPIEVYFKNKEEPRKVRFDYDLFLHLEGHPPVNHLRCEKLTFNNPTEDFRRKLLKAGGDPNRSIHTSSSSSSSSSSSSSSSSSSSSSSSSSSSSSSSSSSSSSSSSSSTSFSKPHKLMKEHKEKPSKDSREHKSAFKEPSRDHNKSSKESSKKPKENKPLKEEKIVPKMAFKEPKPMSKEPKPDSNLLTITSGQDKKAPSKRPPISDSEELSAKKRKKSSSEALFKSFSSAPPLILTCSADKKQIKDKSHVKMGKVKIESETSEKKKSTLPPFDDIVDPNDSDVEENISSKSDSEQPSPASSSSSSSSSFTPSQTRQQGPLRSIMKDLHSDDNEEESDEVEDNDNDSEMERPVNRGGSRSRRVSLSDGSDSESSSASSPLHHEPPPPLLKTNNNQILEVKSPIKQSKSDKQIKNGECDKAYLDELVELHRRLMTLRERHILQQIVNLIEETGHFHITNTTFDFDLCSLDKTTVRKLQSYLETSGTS
RanGTP-Imp inh = inhibitors of RanGTP-importin-beta interaction, primary screen, biochemical, FRET, CFP-Ran, YFP-importin-beta, homogeneous; Ran GTPase (GTP-bound) - importin-beta complex; cell-free CFP-Ran/YFP-importin-beta FRET ratio; inhibition, % (test concentration not listed); hit rate 1.1% among 300,000; AID 2216, 2009;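 active = most replicates above 15%; inconclusive = exactly half above 15%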;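 note: 0% = DMSO wells and 100% = Ran loaded with GDP instead of GTP; wells of about 40 µL received 100 nL stock; the first replicate is given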
Vif A3G = inhibitors of Vif binding to APOBEC3G peptide, primary screen, biochemical, TR-FRET, GST-Vif 1-94, biotin-A3G peptide, dose response retest (AID 1117319) | TR-FRET GST-Vif / biotin-A3G peptide binding; higher % means a stronger effect; test concentration not given here; strong numbers were not always called active | one-dose inhibition, %; IC50 in µM for titrated hits | hit rate 0.57% among 260,000;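 active = above the screen mean plus three standard deviations and confirmed in dose response; inconclusive = results disagree or hit not tested in dose response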;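 note: Vif residues 1-94 fused to GST binding biotinylated APOBEC3G peptide 110-148; 0% = full assay without inhibitor and 100% = GST in place of GST-Vif; retest series ran down from 100 µM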
Calb FLC = C. albicans growth inhibition with fluconazole, primary screen, CaCi-2 strain, Alamar Blue fluorescence; C. albicans CaCi-2 (fluconazole-resistant clinical isolate) + fluconazole, 48 h; growth inhibition, % (test concentration not listed); hit rate 0.57% among 300,000;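 active = most replicates above 75%; inconclusive = exactly half above 75%; inactive = most below 75%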;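 note: all wells also contain fluconazole at 8 µg/ml as a sub-toxic cotreatment; 0% = median of DMSO wells and 100% = median of geldanamycin control wells; wells of about 8 µL received 7.5 nL stock; the first replicate is given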
Beta apoptosis = inhibitors of cytokine-induced beta cell apoptosis, primary screen, luminescence; protection from apoptosis, % (test concentration not listed); AID 435005, 2010; hit rate 0.8% among 300,000; INS-1E cytokine-induced death, ATP luminescence, 48 h; percent of positive-control rescue, neutral wells zero;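 active = all replicates at 75% or more, or half of them and the mean; inconclusive = half reach 75% but not the mean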;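 note: 0% = cytokine-treated negative control wells and 100% = positive control rescue; higher means more ATP so stronger rescue from cytokine killing; wells of about 40 µL received 100 nL stock; the first replicate is given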
Ecoli rRNA inh = reduced GFP signal of wild-type E. coli, primary screen, bacterial rRNA inhibitor project, GFP/RFP fluorescence, OD600, single point | GFP signal change (wild-type ribosome), % (no concentration beside the values) | E. coli WT GFP vs humanized-ribosome RFP mutants, 24 h; active compounds read low; DMSO median 0, no signal -100 | hit rate 1.6% among 350,000;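 active = significant combined selectivity score with lowered wild-type GFP, culture density cut under 30%, mutant RFP and density less affected; inactive = any of these conditions unmet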; note: one replicate is shown; some compounds called inactive have numbers as strong as hits
A1 inh = caspase 3/7 activation in MEF A1-2A-BIM cells, primary screen, A1 inhibitor project, cell-based, luminescence, HTS; Caspase-Glo 3/7 luminescence, 3 h; percent of clofoctol response, vehicle zero; caspase activation, % (no concentration beside the values); hit rate 0.066% among 330,000;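 active = over half of replicate activation scores above 10%, or exactly half above 10 with the replicate mean above 10; inconclusive = replicate mean below 10 yet half the replicates above 10; inactive = over half of replicates below 10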;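 note: wells of about 30 µL received 50 nL stock; many hits fall short of the cut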
T cruzi repl = inhibitors of intracellular T. cruzi growth, primary screen, luminescence, NIH3T3 host cells; T. cruzi beta-gal in NIH3T3, 90 h; inhibition, % (test concentration not listed); hit rate 1.4% among 300,000;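 active = mean inhibition across valid replicates above about 55%, limit read from the data; inconclusive = mean below that limit but half or more replicates reach it; inactive = mean below it, under half of replicates reach it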;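 note: signal also drops with host cell toxicity which is not excluded here; 0% = plate median of DMSO wells and 100% = zero luminescence signal; higher percent means less beta-gal luminescence so fewer parasites; stock transfer was 50 nL into about 50 µL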
Ecoli rRNA inh OD600 = also measured in Ecoli rRNA inh; calls as there; OD600 change, %; measured here: OD600 growth;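 optical density of the mix in the first replicate; 0 = DMSO median and -100 = no signal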
Ecoli rRNA inh RFP = further read-out of Ecoli rRNA inh, marked with its call; RFP signal change, %; measured here: RFP humanized mutant strains;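 first replicate; 0 = DMSO median and -100 = no signal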
* hit, by the source's call; ? = inconclusive; nt = no result given; & = joins results of further samples. The list is partial; rates above refer to the full screens.

SMILES	MLL AF4-AF9 inh	RanGTP-Imp inh	Vif A3G	Calb FLC	Beta apoptosis	Ecoli rRNA inh	Ecoli rRNA inh OD600	Ecoli rRNA inh RFP	A1 inh	T cruzi repl
COc1ccc(CCN2CC(C(=O)NCCc3ccc(F)cc3)CCC2=O)cc1 (stereo unspecified)	0.7	0.1	nt	1	-6	6	-9	0.4	0.4	10
COc1ccccc1CNC(=O)c1[nH]c(C)c(C(C)=O)c1C	-4.7	-2.3	-7%	3	-7	8	6	-3.9	-0.4	2
O=C(NCCc1cn2ccccc2n1)c1cc(COc2c(F)cccc2F)on1	-0.7	-2.1	3%	10	6	-24	-24	22	-0.4	-2
O=C(NCC(c1ccco1)N1CCc2ccccc21)C(=O)Nc1ccc(F)cc1F (stereo unspecified)	0.2	-3.4	2%	28	-3	-13	-7	-2.8	0.5	24
COC(=O)C1=C(C)N(C)C(=S)NC1c1ccc(OC)cc1OC (stereo unspecified)	0.0	2.2	-4%	-5	1	-4	2	-1.3	1.0	-19
Cc1c(NC(=O)CSc2ccccc2C(=O)Nc2cccnc2)c(=O)n(-c2ccccc2)n1C	nt	0.7	-2%&0%	-8	0	nt	nt	nt	-0.6	-6
Cc1cccc(/C=C2\Oc3cc(OS(C)(=O)=O)ccc3C2=O)c1	7.3	-3.0	nt	-14	4	-10	9	12	-0.7	10
Cn1c(N)c(C(=O)c2ccc(C#N)cc2)c(=O)n(C)c1=O	nt	-2.7	-5%	12	-2	nt	nt	nt	-0.4	1
CC(=O)Nc1ccc(S(=O)(=O)NCC(=O)OCC(=O)c2cc(C)n(-c3ccc4c(c3)OCO4)c2C)cc1	nt	6.1	16%	7	-2	nt	nt	nt	-0.1	15
CCC(=O)Nc1cc(-c2nn(C)c(=O)c3ccccc23)ccc1N1CCCCC1	nt	-4.5	-3%	8	10	nt	nt	nt	-0.1	31
Cc1cc([N+](=O)[O-])nn1CC(=O)NCCCN1CCOCC1	0.0	-3.1	nt	5	-2	-11	6	-4.0	0.8	-1
COCC(=O)NCCSc1c(C)[nH]c2ccccc12	-5.2	-2.7	5%	-3	5	2	8	-4.7	0.4	7
CCCCn1c(N)c(N(CCOC)C(=O)C2CC(=O)N(c3ccc(CC)cc3)C2)c(=O)[nH]c1=O (stereo unspecified)	1.7	nt	0%	nt	0	8	7	-1.8	1.2	nt
CC(CCc1ccccc1)NC(=O)Cn1cccc1C(=O)c1ccccc1 (stereo unspecified)	-4.0	-2.7	nt	-10	0	6	5	5.9	1.3	23
COc1ccc(Cl)cc1NC(=O)COC(=O)CCCC1=NS(=O)(=O)c2ccccc2N1	-1.7	-0.5	nt	15	-3	-4	-5	1.1	-0.7	1
O=C(O)CCCC(=O)N1N=C(c2ccccc2)CC1c1cccs1 (stereo unspecified)	-1.2	0.2	nt	8	7	-1	-2	1.3	1.0	7
COc1ccc(/C=C/CN2CCN(CC(C)C)C(CCO)C2)cc1 (stereo unspecified)	3.2	3.1	12%	-16	-3	14	1	0.1	-1.2	37
O=S(=O)(c1ccc(Cl)cc1)N1CCN(CCc2ccncc2)CC1	2.7	-4.2	nt	7	-6	6	8	0.3	-1.1	-15
O=S(=O)(c1ccc(SCCOc2ccc(Cl)cc2)nc1)N1CCCC1	-0.2	nt	5%	nt	0	4	-7	-1.9	-0.2	nt
O=S(=O)(NCCc1ccccc1)c1cnc(Cl)c(Br)c1	-3.8	-2.7	nt	-14	nt	0	-1	2.2	nt	0
CCCC(C)c1nnc(NC(=O)C2CCCO2)s1 (stereo unspecified)	-23	-1.1	7%	-2	-5	7	6	2.6	-0.8	-5
O=C(CN1CCc2ccccc2C1)Nc1ccc(OC(F)(F)F)cc1	-12	-1.2	3%	-3	nt	9	-6	0.7	0.8	2
Cc1cc(C(=O)NNC(=S)NCC2CCCO2)cs1 (stereo unspecified)	nt	1.7	32%	-3	-1	nt	nt	nt	-0.2	nt
Brc1ccccc1OCCCCN1CCCCC1	-4.1	1.3	1%	0	3	5	11	-1.8	0.4	23
CCc1ccc(C(C)NC(=O)Cc2ccc(F)cc2)cc1 (stereo unspecified)	-0.5	5.2	15%	-17	1	8	14	11	0.1	2
O=C(Nc1cccc2nsnc12)c1cccnc1Cl	-3.0	1.3	7%	2	nt	11	4	-3.1	-0.6	-1
Cc1ccc(S(=O)(=O)c2c(N)n(C)c3nc4ccccc4nc23)cc1	nt	?	26%	24	-12	nt	nt	nt	0.7	10
CCOC(=O)c1c(NC(=O)Cc2ccccc2)sc2c1CC(C)(C)NC2(C)C	-6.3	7.8	nt	-6	-11	-56	-78	-14	-0.7	29
Cc1ccc(-n2c(=O)cc(N3CC(C)OC(C)C3)[nH]c2=O)cc1 (stereo unspecified)	44*	4.7	3%	0	-2	6	9	-5.5	0.5	-11
Cc1ccc(NC(=O)CN(c2ccc(Cl)cc2)S(=O)(=O)c2cc([N+](=O)[O-])ccc2Cl)cc1	-2.2	1.5	6%	-1	11	5	7	0.2	0.7	34
COc1cccc(C2C(C#N)=C(N)OC(C(C)(C)C)=C2C#N)c1 (stereo unspecified)	nt	5.5	4%	-1	-11	nt	nt	nt	-0.3	-4
CC(=O)c1ccc(NC(=O)c2sc3nc4n(c(=O)c3c2C)CCCCC4)cc1	-3.1	6.6	11%	3	6	-22	-18	-4.5	-0.6	-13
CCCCC(=O)Nc1ccc(NC(=S)NC(=O)CC)cc1OC	nt	2.6	nt	2	6	nt	nt	nt	1.0	-7
CC(C)C(NC(=O)c1ccc2c(c1)OCO2)C(=O)N/N=C\c1ccco1 (stereo unspecified)	-9.1	-1.9	1%	-25	0	10	18	0.7	0.8	-11
Cc1c(C(=O)NNC(=O)c2ccncc2)oc2ccc(Br)cc12	9.2	2.7	4%	18	nt	-15	-19	-0.8	-1.2	-13
CC(C)(C)NC(=O)COC(=O)CCC(=O)c1cccs1	-0.9	-1.4	-1%	-2	-10	5	-4	-4.3	-0.9	-10
CC1CC(=O)c2c(cc3c(-c4c(O)cc(O)c5c(O)c6c(cc45)OC(C)CC6=O)c(O)cc(O)c3c2O)O1 (stereo unspecified)	nt	7.6	0.41µM*	-16	98*	nt	nt	nt	0.1	71*
CC1CN(C2CCN(C(=O)COc3ccccc3)CC2)CC(C)O1 (stereo unspecified)	nt	-1.5	9%	-1	-6	nt	nt	nt	-1.2	-16
CCN(CC)S(=O)(=O)c1cccc(-c2nnc(SCC(=O)NC3CCCCCCC3)n2N)c1	nt	-1.1	18%	-6	-11	nt	nt	nt	-0.3	7
O=C(c1ccc(Cl)cc1)C(Cn1cncn1)C(Sc1ccccc1)c1ccccc1 (stereo unspecified)	nt	3.7	2%	-6	-16	nt	nt	nt	0.4	13
COCCNC(=O)C(c1ccc(F)cc1)N(CCOC)C(=O)CCC(=O)Nc1ccccn1 (stereo unspecified)	-0.2	3.8	nt	0	2	4	10	0.3	-0.1	-9
Cc1ccc(SCC(=O)O/N=C(\N)c2cccc([N+](=O)[O-])c2)cc1	1.4	-0.2	-3%	-16	-6	-3	-4	2.8	-0.1	5
O=C(c1c[nH]c2ccc(S(=O)(=O)N3CCOCC3)cc2c1=O)N1CCN(c2ccccn2)CC1	nt	-1.1	2%&1%	3	nt	nt	nt	nt	nt	-3
COc1ccc(N2CCN(CCNC(=O)CCC(=O)NNc3nc4ccccc4c4nc(C)nn34)CC2)cc1	nt	-0.8	nt	-8	-10	nt	nt	nt	-0.5	1
CCCCCn1c(CN2CCN(Cc3ccccc3)CC2)nc2c1c(=O)n(C)c(=O)n2C	nt	-0.7	9%	-7	0	nt	nt	nt	0.1	40
Cc1ccc(NC(=O)NC(=O)N(C(C)C)S(C)(=O)=O)nc1	-2.7	nt	nt	nt	-2	1	17	8.2	0.5	nt
CC(Oc1ccc(Br)cc1)C(=O)N1CCN(c2ccccn2)CC1 (stereo unspecified)	-2.5	2.1	1%	16	-2	-12	-7	2.5	1.9	8
CCCn1c(C(C)NC(C)=O)nc2ccccc21 (stereo unspecified)	-6.8	?	27%	-6	-4	4	-6	-3.1	0.2	-14
O=C1CCN(Cc2ccc(O)cc2)CCN1[C@H](CO)c1ccccc1	-16	-1.2	nt	5	-4	3	16	-1.7	0.9	4
CCc1ccc(NC(=O)CC2C(=O)NCCN2C(=O)c2ccc(F)cc2)cc1 (stereo unspecified)	-0.8	4.3	-8%	3	-7	5	9	-1.1	0.0	-3

The list goes on:
SMILES	MLL AF4-AF9 inh	RanGTP-Imp inh	Vif A3G	Calb FLC	Beta apoptosis	Ecoli rRNA inh	Ecoli rRNA inh OD600	Ecoli rRNA inh RFP	A1 inh	T cruzi repl
COC(=O)Cc1ccc(NC(=S)NNC(=O)C2CC2)cc1	-0.8	-0.2	66%	-4	-3	7	3	-1.4	0.7	-2
C[C@H](NC(=O)c1[nH]cnc1C(=O)Nc1ccccc1)C(=O)OC(C)(C)C	47*	-2.1	?	10	-1	5	4	-1.0	-2.5	8
COc1ccc(NS(=O)(=O)c2cc3c(cc2C)N(C(C)=O)CCO3)cc1OC	2.4	3.8	nt	-5	-5	2	7	2.6	0.1	-20
Cc1ccccc1-c1nc(CS(=O)(=O)CC(=O)NCCCN2CCN(C)CC2)c(C)o1	2.3	-0.8	nt	2	-4	21	6	0.3	0.6	-3
CCN(C(=O)c1cc2c(s1)-c1ccccc1OC2)c1cc(OC)ccc1OC	4.6	-3.2	-3%	9	1	-14	-14	-1.4	0.4	42
O=C(NCCc1csc(-c2ccccc2)n1)c1ccc(Br)o1	-8.5	4.0	-2%	-13	4	-60	-78	-17	0.0	39
O=C(O)C1C2CCC(C2)C1C(=O)Nc1ccc(Cl)c(Cl)c1 (stereo unspecified)	-2.1	-0.2	nt	1	nt	0	1	-1.8	0.1	11
C/C(=N\NC(=O)c1ccco1)c1ccc(NC(=O)c2ccccc2)cc1	-0.8	0.0	3%	-4	8	4	13	1.3	-2.5	-15
CC1CCc2nc(NC(=O)C3CCCO3)sc2C1 (stereo unspecified)	nt	-4.8	-1%	-6	-5	nt	nt	nt	-4.2	13
COc1ccccc1NC(=O)CCN1CCN(C)CC1	-1.4	-1.3	nt	-10	-6	21	14	3.0	0.7	-7
C/C(=N\OCc1ccc(C#N)cc1)c1cc2ccccc2o1	5.2	5.7	-3%	78*	-1	-23	-36	-7.5	0.6	3
